# Bioassay records as filed in PubChem BioAssay.
# VACV Venus inh: qHTS for Stage-Specific Inhibitors of Vaccinia Orthopoxvirus: Venus Reporter Primary qHTS; Vaccinia virus Venus reporter expression, fluorescence; 330,000 tested, 0.46% active; AID 720580, 2013; Potency, µM (top dose mostly 36.5 µM), inactives show top-dose activity change, negative = inhibition, actives largely listed as inhibitors; active means well fitted inhibition curve with a large enough effect; inconclusive means small, poorly fitted or top-dose-only effect; inactive means no such curve, though single readings can be large or run the other way; tested in A549 cells; note: nearly all actives have a fitted effect of over 30% in size; inactives centre near -10
# Vaccinia mCherry: qHTS for Stage-Specific Inhibitors of Vaccinia Orthopoxvirus: mCherry Reporter Primary qHTS | Vaccinia virus mCherry reporter infection, fluorescence; about a quarter of the inactives have no number | Potency, µM (series often up to 36.5 µM), without a hit: top-dose activity change, negative = inhibition, usual class: inhibitors | 310,000 tested, 0.63% active | AID 720579, 2013; active = well fitted inhibition curve with a large enough effect; inconclusive = small, poorly fitted or top-dose-only effect; inactive = no such curve, though single readings can be large or run the other way; tested in A549 cells; note: nearly all actives have a fitted effect of over 35% in size; inactives centre near -10
# An asterisk follows results filed as active; i = inactive; ? = inconclusive; · = no result given; [ ] = remark or other dose. % is set by controls: 0 for no effect and ±100 for the full control effect; potency is the fitted concentration of half-maximal effect. Rows are unselected; overall some 0.88% were active at least once.
# The first 3 compounds as a preview:
SMILES,VACV Venus inh,Vaccinia mCherry
Cc1ccc(C(=O)O/N=C(\N)c2ccc(C(F)(F)F)cn2)cc1,-14%,-13%
CCOC(=O)C1=C(CN2CCOCC2)NC(=O)NC1c1cccc([N+](=O)[O-])c1 (centres undefined),-7%,i
CN(Cc1ccccc1)S(=O)(=O)c1ccc(NC(=O)C2CCCO2)cc1 (centres undefined),-10%,i

# Main list, from the first entry:
SMILES,VACV Venus inh,Vaccinia mCherry
Cc1ccc(C(=O)O/N=C(\N)c2ccc(C(F)(F)F)cn2)cc1,-14%,-13%
CCOC(=O)C1=C(CN2CCOCC2)NC(=O)NC1c1cccc([N+](=O)[O-])c1 (centres undefined),-7%,i
CN(Cc1ccccc1)S(=O)(=O)c1ccc(NC(=O)C2CCCO2)cc1 (centres undefined),-10%,i
CC(=O)c1ccc(NC(=S)NCCCn2ccnc2)cc1,-11%,i
O=C1C=CC(=O)N1Cc1cccnc1,0%,i
CCC(CC)c1nnc(NC(=O)c2cc(-c3ccccc3)nc3ccccc23)s1,-7%,-11%
Cc1ccccc1NC(=O)Cc1nc(COC(=O)CCNS(=O)(=O)c2ccccc2)cs1,-16%,-30%
Cc1ccc(C(=O)c2cc([N+](=O)[O-])ccc2N2CCOCC2)cc1C,-29%,?
CC(C)(C)OC(=O)N1Cc2ccccc2C[C@H]1C(=O)NC1CCCC1,-13%,-9%
O=C(NC1CCSc2ccccc21)c1ccccc1F (centres undefined),-10%,-15%
CCOC(=O)Cc1nnc(NC(=O)CSc2ncc(-c3ccccc3)nn2)s1,0%,-6%
O=C(O)c1ccc(Cl)c(NC(=O)C2CCN(S(=O)(=O)c3cccs3)CC2)c1,-7%,-25%
Cc1cc(C)c2nc(N3CCN(C)CC3)c(C#N)cc2c1,-6%,-10%
Cc1cccc(C)c1NC1=NCCCCS1,4%,-4%
CC(OC(=O)Cc1n[nH]c(=O)c2ccccc12)C(=O)Nc1ccccc1[N+](=O)[O-] (centres undefined),-19%,-25%

# Part of the list above in order of SMILES length, low to high:
SMILES,VACV Venus inh,Vaccinia mCherry
O=C1C=CC(=O)N1Cc1cccnc1,0%,i
O=C(NC1CCSc2ccccc21)c1ccccc1F (centres undefined),-10%,-15%
Cc1cc(C)c2nc(N3CCN(C)CC3)c(C#N)cc2c1,-6%,-10%
CCOC(=O)Cc1nnc(NC(=O)CSc2ncc(-c3ccccc3)nn2)s1,0%,-6%
O=C(O)c1ccc(Cl)c(NC(=O)C2CCN(S(=O)(=O)c3cccs3)CC2)c1,-7%,-25%
CC(OC(=O)Cc1n[nH]c(=O)c2ccccc12)C(=O)Nc1ccccc1[N+](=O)[O-] (centres undefined),-19%,-25%

# Further entries:
SMILES,VACV Venus inh,Vaccinia mCherry
CCSc1nsc(NC(=O)Nc2ccccc2OC)n1,-17%,-2%
Cc1nc2cc(NC(=O)Nc3cccc4ccccc34)ccc2n1C,-15%,-5%
Cc1cc2c(cc1C)N[C@]1(C[C@H]3CCCC(=O)N4CC[C@@H](C1)[C@@H]34)C(=NCc1ccccc1)N2,-28%,-13%
O=C(C[n+]1ccc2ccccc2c1)Nc1cc(C(F)(F)F)ccc1Cl,-11%,-21%
CNC(=O)Oc1ccc(-c2cn3cc(C)ccc3n2)cc1,-10%,-29%
COc1ccccc1NC(=O)CN1C(=O)c2cccc3cccc1c23,-14%,-20%
CC(C)=CC(=O)Nc1ccc(S(=O)(=O)Nc2ccccn2)cc1,-11%,-12%
CC(C)CNC(=O)COC(=O)CCC(=O)c1ccc(Cl)cc1,0%,i
NS(=O)(=O)c1cccc(NC(=O)Cn2cnc3ccccc3c2=O)c1,5%,-9%
Cc1ccc(-n2nnnc2CS(=O)(=O)c2ccccc2)c(C)c1,-9%,-15%
COc1cc(Cl)c(S(=O)(=O)N2CCN(Cc3ccc4c(c3)OCO4)CC2)cc1Cl,0%,-9%
O=C(OCC#CCSc1nnc(-c2ccccc2)o1)c1cc2ccccc2o1,-16%,0%
Cc1ccccc1NC(=O)CC1S/C(=N/c2nccs2)N(C)C1=O (centres undefined),-9%,i
Cc1ccc([C@@H]2C[C@H]3[C@@H](CN2S(=O)(=O)c2ccc(C)cc2)C(=O)C[C@@H](c2ccc(Cl)cc2)N3S(=O)(=O)c2ccc(C)cc2)cc1,-12%,-4%
COc1ccc(NC(=O)C2(C)Cc3c(-c4cccc(C(N)=O)c4)ccnc3O2)cc1 (centres undefined),-10%,?

# Compound profiles, from the list above:
# `O=C(C[n+]1ccc2ccccc2c1)Nc1cc(C(F)(F)F)ccc1Cl` as listed: VACV Venus inh = -11%; Vaccinia mCherry = -21%
# `COc1cc(Cl)c(S(=O)(=O)N2CCN(Cc3ccc4c(c3)OCO4)CC2)cc1Cl` as listed: VACV Venus inh = 0%; Vaccinia mCherry = -9%

# Continuation.
SMILES,VACV Venus inh,Vaccinia mCherry
Cc1ccc(C)c(NC(=S)NCC(c2cccnc2)N2CCOCC2)c1 (centres undefined),-22%,i
Cc1sc(C(=O)Nc2ccc3ccccc3c2)cc1CC(=O)O,2%,0%
COc1ccc(-c2cnc3c(NC=O)cc(-c4ccc(F)cc4)cn23)cc1OC,?,11µM*
CCOc1nc(-c2ccc(OC)cc2)ccc1-c1noc(-c2cc(OC)c(OC)c(OC)c2)n1,-14%,-7%
Cc1cccc(NC(=O)Cn2cnc3ccccc3c2=O)c1C,-6%,·
CCN(c1ccc(OC)cc1)S(=O)(=O)c1nnc(NC(=O)c2ccco2)s1,-8%,-6%
COc1ccc(Nc2nc(Cl)nc(NCCO)n2)cc1,-21%,i
Cc1ccc(S(=O)(=O)Nc2ccccc2CNC2CCCCC2)cc1,-14%,-7%
O=c1nc2c(-c3ccc(F)cc3Cl)n[nH]n2c2ccccc12,-10%,-6%
Cc1ccc(-c2c[nH]c(=S)n2-c2ccccc2F)cc1,-9%,-7%
Cc1ccc(CNC(=O)c2sc3nc(C)cc(C)c3c2-n2cccc2)cc1,-17%,-12%
O=C(c1ccccc1Sc1ccc([N+](=O)[O-])cc1)N1CCCCC1,-16%,-23%
CCOC(=O)N1CCC(NC(=O)c2ccc3c(c2)N=C(CC)c2ccccc2S3)CC1,-9%[7.34 µM],-17%[7.34 µM]
CC(c1ccco1)N(C(=O)c1ccccc1NS(=O)(=O)c1cccc([N+](=O)[O-])c1)c1ccccn1 (centres undefined),-11%,-5%
Cc1cc(=O)[nH]c(SCc2ccc(Cl)cc2)n1,-7%,i
CCCCc1nc(SCC(=O)Nc2nnc(C(C)C)s2)n[nH]1,-7%,-14%
CC(C)(Oc1ccc(Cl)cc1)C(=O)NCCCn1ccnc1,-10%,-15%
C=C(C)CNC(=S)Nc1sc2c(c1C(=O)OCC)CC(C)(C)OC2,-5%,-9%
S=C(NCc1cccnc1)Nc1ccc(Cl)cc1,-27%,-3%[1.46 µM]
CC1CC(C)CN(CC(=O)c2cccs2)C1 (centres undefined),-2%,i
Cc1cc(NO)nc(-c2ccc(Br)cc2)n1,-26%,-27%
O=C(/C=C/c1ccccc1)CCN1CCCCC1,?,?
O=C(O)c1ccc(NS(=O)(=O)c2cccc(S(=O)(=O)c3ccc(Cl)c(Cl)c3)c2)cc1,-5%,-12%
COc1cc2cc(C(=O)N3CCN(c4ccccc4OC)CC3)[nH]c2cc1OC,-7%,i
CCSc1nc2n(n1)C(c1ccc(CC)cc1)C(C(=O)Nc1ccccc1OC)=C(C)N2 (centres undefined),-24%,-26%
CC(C)=CCCC1(C)C=Cc2c(O)c3c(c(CC=C(C)C)c2O1)OC12C(=CC4CC1C(C)(C)OC2(C/C=C(/C)C(=O)O)C4O)C3=O (centres undefined),11µM*,13µM*
COCCN1C(=O)COc2ccccc2C1C(=O)NC1CCCCC1 (centres undefined),5%,21%
O=C1NCC(Nc2ccc(Br)cc2)C(=O)N1 (centres undefined),0%,-8%
CC(CCc1ccccc1)NC(=O)c1ccc(NC(=O)c2cccc(Br)c2)cc1 (centres undefined),-14%,-2%
CCN(CC)S(=O)(=O)c1ccc(NC(=O)CN(c2ccccc2)S(=O)(=O)N(C)C)cc1,-1%,-11%

# Part of the list above, as tab-separated lines.
canonical_smiles	VACV Venus inh	Vaccinia mCherry
C=C(C)CNC(=S)Nc1sc2c(c1C(=O)OCC)CC(C)(C)OC2	-5%	-9%
CC(CCc1ccccc1)NC(=O)c1ccc(NC(=O)c2cccc(Br)c2)cc1 (centres undefined)	-14%	-2%
CCN(CC)S(=O)(=O)c1ccc(NC(=O)CN(c2ccccc2)S(=O)(=O)N(C)C)cc1	-1%	-11%
Cc1cc(NO)nc(-c2ccc(Br)cc2)n1	-26%	-27%

# Next records.
SMILES,VACV Venus inh,Vaccinia mCherry
O=C1CNC(=O)/C(=C/c2ccco2)N1,-11%,-12%
CCOc1ccc(/C=C/c2[nH]c(=O)[nH]c(=O)c2[N+](=O)[O-])cc1,-10%,i
CC1CC(C)(C)N(C(=O)CN2C(=O)c3ccccc3C2=O)c2ccccc21 (centres undefined),-16%,-17%
O=C(Nc1cccnc1)C1Cc2c(-c3cccc(F)c3)ccnc2O1 (centres undefined),-17%,i
C[C@H](CO)N1C[C@H](C)[C@@H](CN(C)S(=O)(=O)c2ccccc2)Oc2ccc(NS(=O)(=O)c3ccc(F)cc3)cc2C1=O,-10%,i
N=c1ccn(Cc2ccc(Cl)cc2Cl)cc1,?,·
O=C(COc1ccc(S(=O)(=O)N2CCCC2)cc1Cl)Nc1ccc2c(c1)OCO2,-15%,-22%
CC(=NNc1ccc([N+](=O)[O-])cn1)c1ccc(N)cc1,-13%,-4%
O=C(CC1CCCCC1)N1CCC(c2nc(-c3ccc(S(=O)(=O)N4CCCC4)cc3)no2)CC1,-13%,-9%
O=C(N/N=C/C=C/c1ccco1)c1cnccn1,-3%[7.34 µM],-1%[7.34 µM]
COc1ccc(CC(=O)Nc2nc(-c3ccc(OC)c(OC)c3)cs2)cc1OC,-27%,-25%
CCOc1ccc(C2CC(=O)N(c3cccc(F)c3)C3=C2C(=O)OC3)cc1 (centres undefined),8%,-1%
COc1cccc(Cn2c(-c3nonc3NC(C)=O)nc3ccccc32)c1,-14%,-16%
Cc1cccc(-c2n[nH]c(=S)n2Cc2ccccc2)c1,-13%,-16%
Cc1sc2nc(CSC(C)C(=O)NC3(C#N)CCCCC3)[nH]c(=O)c2c1C (centres undefined),-8%,5%
CCCOc1ccc(Oc2nc(NC)nc(N3CCOCC3)n2)nn1,-9%,-11%
Cc1ccc2nc(-c3ccncc3)[nH]c2c1,-8%,-11%
COc1ccc(CCNC(=O)CN(CCc2ccccc2)S(C)(=O)=O)cc1OC,-15%,-15%
Cc1cc(N2CCCC2=O)ccc1S(=O)(=O)NC1CCCCC1,-4%,9%
COc1cccc(C2c3c(-c4ccccc4O)n[nH]c3C(=O)N2CCc2ccc(OC)c(OC)c2)c1 (centres undefined),-13%,-16%
CCOc1ccc2nc(N(Cc3cccnc3)C(C)=O)sc2c1,-15%,0%
O=C(NCc1cc(C(F)(F)F)cc(C(F)(F)F)c1)C1CC(c2ccccc2F)=NO1 (centres undefined),-13%,i
COc1ccc(C(=O)OCC(=O)NC(=O)NCc2ccccc2)cc1[N+](=O)[O-],-2%,-11%
NC(=O)CSc1nc2c(c(=O)n1-c1ccccc1)C1(CCCCC1)Cc1ccccc1-2,-25%,i
COC(=O)c1c(NC(=O)CSc2nc3ccccc3c(=O)n2-c2ccccc2)sc(C)c1C,4%,i
COC(=O)Cc1c(C)c2cc(Cl)c(OC(=O)c3ccco3)cc2oc1=O,-28%,-3%[1.46 µM]
CC(C)C(C(=O)NCc1ccco1)N(CC1CCCO1)C(=O)CNS(=O)(=O)c1ccccc1 (centres undefined),4%,-1%
C=CC(c1ccccc1)C(C(=O)c1ccccc1)N(C)C (centres undefined),-8%,-22%
Cc1cc(S(=O)(=O)Nc2ccc(C(=O)N3CC(C)OC(C)C3)cc2)ccc1F (centres undefined),-17%,-15%
O=C(c1ccc(Cl)cc1)C1CCCN(Cc2cnn(-c3ccccc3)c2)C1 (centres undefined),-19%,-26%
O=c1cc(-c2ccc(F)cc2)[nH][nH]1,3%,-4%
CCC(C(=O)OCC(=O)NC1CCS(=O)(=O)C1)c1ccccc1 (centres undefined),-8%,i
COc1ccc(C(=O)Nc2nc3ccccc3[nH]2)cc1,?,-18%
Cc1cn2c(=O)cc(COc3ccc(NC(=O)c4ccc(C(C)(C)C)cc4)cc3)nc2s1,?,-27%
O=C(CSc1nc2ccccc2[nH]1)c1ccco1,?,·
CCc1cc(-c2n[nH]c(=S)n2Cc2ccccc2)cs1,-23%,-12%
Cc1ccc(CNC(=O)c2ccc(N3CCCC3)c(NC(=O)Nc3ccc(C)cc3)c2)cc1,-26%,-25%
COc1ccc(NC(=O)Cn2nnc(-c3ccccc3)c2COc2ccc3ccccc3c2)cn1,-17%,-21%
COCCC1CCCCN1C(=O)c1cccc(OC2CCN(C3CCCC3)CC2)c1 (centres undefined),-6%,-12%
CCOc1ccc(-c2nc(C(N)=O)c3c(n2)n(-c2ccc4c(c2)OCO4)c(=O)n3CC)cc1,-14%,-16%
O=C(CN1CCCCC1)NC(=O)NC1CCCC1,-2%,4%
COc1ccc(Cl)cc1S(=O)(=O)N1CCC(C(=O)N2CCOCC2)CC1,-6%,-8%
CN(CC(=O)Nc1ccccc1Cl)C(=O)c1cc2c(s1)CCCCC2,-9%,-19%
